NOMO-1 viab: STK33 inhibitor candidate reducing NOMO-1 cell viability. NOMO-1 AML viability, CellTiter-Glo luminescence, 72 h. inhibition, % (no concentration beside the values). hit rate 7.5% among 37,000. AID 2330;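 active means most replicates above 80%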;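 further: wells of about 30 µL received 25 nL stock; 0% = median of vehicle wells and 100% = reference inhibitor level; the first replicate is given; inactives centre near 10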
* = called active by the depositor.

SMILES | NOMO-1 viab
COc1ccc(S(=O)(=O)N(C)C[C@@H]2Oc3ccc(NC(=O)CCCCCC(=O)Nc4ccccc4N)cc3CC(=O)N([C@@H](C)CO)C[C@@H]2C)cc1 | 50.0
C[C@@H]1CN([C@H](C)CO)C(=O)c2cc(NC(=O)CCN3CCOCC3)ccc2O[C@H]1CN(C)Cc1ccccc1 | -8.1
C[C@@H]1CN([C@@H](C)CO)C(=O)c2cccc(NC(=O)NC3CCCCC3)c2O[C@@H]1CN(C)Cc1ccc(C(=O)O)cc1 | -3.3
C[C@H]1CN([C@@H](C)CO)C(=O)Cc2cc(NC(=O)C3CC3)ccc2O[C@@H]1CN(C)C(=O)Nc1ccc(C(F)(F)F)cc1 | 2.0
Cc1cccc(OCC(=O)Nc2cccc(C(=O)Nc3ccccc3C(=O)O)c2)c1 | 1.8
C[C@@H]1CN([C@@H](C)CO)C(=O)c2cc(NC(=O)Nc3ccc4c(c3)OCO4)ccc2O[C@H]1CN(C)C(=O)Nc1ccc(C(F)(F)F)cc1 | 39.2
COc1ccc(NC(=O)Nc2ccc3c(c2)C(=O)N([C@H](C)CO)C[C@@H](C)[C@H](CN(C)Cc2ccc(C(F)(F)F)cc2)O3)cc1 | 49.2
COc1ccc(N(CC(=O)Nc2cccc([N+](=O)[O-])c2C)S(C)(=O)=O)cc1Cl | 9.6
COc1ccccc1NC(=O)CSc1nnnn1-c1cc(C)cc(C)c1 | 28.0
Cc1noc(C)c1S(=O)(=O)Nc1ccc2c(c1)CC(=O)N([C@@H](C)CO)C[C@H](C)[C@@H](CN(C)S(=O)(=O)c1cn(C)cn1)O2 | 4.5

A draw from above in order of SMILES length, low to high.
SMILES | NOMO-1 viab
COc1ccccc1NC(=O)CSc1nnnn1-c1cc(C)cc(C)c1 | 28.0
Cc1cccc(OCC(=O)Nc2cccc(C(=O)Nc3ccccc3C(=O)O)c2)c1 | 1.8
C[C@@H]1CN([C@@H](C)CO)C(=O)c2cc(NC(=O)Nc3ccc4c(c3)OCO4)ccc2O[C@H]1CN(C)C(=O)Nc1ccc(C(F)(F)F)cc1 | 39.2

The list continues:
SMILES | NOMO-1 viab
Cc1ccc(NC(=O)C2CC(=O)n3c(nc4ccccc43)N2)cc1Cl (stereo unspecified) | 13.1
Cc1ccc(N(C(=O)COc2ccc(C)cc2C)C2C=CS(=O)(=O)C2)cc1 (stereo unspecified) | -6.7
CC(C)NC(=O)N(C)C[C@H]1Oc2ccc(NC(=O)Nc3ccc4c(c3)OCO4)cc2C(=O)N([C@@H](C)CO)C[C@H]1C | 1.6
COc1ccc(S(=O)(=O)N(C)C[C@H]2Oc3ccc(NC(=O)Cn4cnnn4)cc3CC(=O)N([C@H](C)CO)C[C@H]2C)cc1 | -2.2
C[C@@H]1CN([C@H](C)CO)C(=O)Cc2cc(NS(=O)(=O)c3cn(C)cn3)ccc2O[C@@H]1CN(C)CC1CC1 | 15.1
C[C@H](CO)N1C[C@H](C)[C@H](CN(C)C(=O)Nc2cccc3ccccc23)Oc2ccc(NC(=O)Nc3ccc(C(F)(F)F)cc3)cc2CC1=O | 37.1
Cc1noc(C)c1NC(=O)Nc1ccc2c(c1)C(=O)N([C@@H](C)CO)C[C@H](C)[C@H](CN(C)CC1CCCCC1)O2 | 13.8
C[C@@H]1CN([C@H](C)CO)C(=O)c2cc(NC(=O)Cc3ccccc3)ccc2O[C@@H]1CN(C)C(=O)Nc1ccc(F)cc1 | 26.0
O=C(/C=C/c1ccc(O)c(O)c1)OCCc1ccccc1 | 141.5*
CC(C)NC(=O)N(C)C[C@@H]1Oc2c(NS(=O)(=O)c3cccs3)cccc2C(=O)N([C@@H](C)CO)C[C@H]1C | -2.3
C[C@@H]1CN([C@H](C)CO)C(=O)c2cc(NC(=O)CCCN(C)C)ccc2O[C@H]1CN(C)S(=O)(=O)c1cccs1 | -17.7
COc1ccc(NC(=O)N(C)C[C@H]2Oc3c(NS(=O)(=O)c4ccc(C)cc4)cccc3C(=O)N([C@@H](C)CO)C[C@H]2C)cc1 | 48.6
Cc1cc(N(CC(=O)Nc2ccc(Cl)c(Cl)c2)S(C)(=O)=O)ccc1Br | 29.7
COc1ccc(NC(=O)Nc2ccc3c(c2)C(=O)N([C@H](C)CO)C[C@H](C)[C@H](CN(C)S(=O)(=O)c2ccc(F)cc2)O3)cc1 | 48.6
CC(C)(C)c1cn2c3ccccc3nc2n1CCCN1CCCCC1 | -12.1
Cc1csc2sc(-c3ccnc(SCC(=O)NCc4ccccc4)n3)c(C)c12 | 112.9*
Cc1ccc(S(=O)(=O)Nc2ccc3c(c2)C(=O)N([C@H](C)CO)C[C@H](C)[C@@H](CN(C)CC2CCCCC2)O3)cc1 | -12.3
C[C@H]1CN([C@@H](C)CO)C(=O)c2cccc(NC(=O)C3CCOCC3)c2O[C@H]1CN(C)C(=O)Nc1ccc2c(c1)OCO2 | 18.8
O=C(Nc1cccc(C(F)(F)F)c1)Nc1cc(Cl)ccc1C(=O)O | 20.1
CCCc1cc(=O)oc2cc(OCC(=O)Nc3ccc4c(c3)OCCO4)ccc12 | 14.6
COc1ccc([N+](=O)[O-])cc1N(CC(=O)N1CCCCC1)S(C)(=O)=O | -32.7
Cc1ccc(-c2nnc(SCC(=O)Nc3ccc(Br)c(C)c3C)o2)cc1 | 21.8
C[C@@H]1CN([C@H](C)CO)C(=O)Cc2cc(NS(C)(=O)=O)ccc2O[C@H]1CN(C)C(=O)Nc1ccc(C(F)(F)F)cc1 | 30.1
CC1(C)CC(=O)C=C(SCC(=O)Nc2cc(C(F)(F)F)cc(C(F)(F)F)c2)S1 | 103.1*
COC(=O)CSc1nnc(C2COc3ccccc3O2)n1-c1ccccc1 (stereo unspecified) | 60.4
CC(=O)OCC1(C)CC2[C@]3(CO[C@@]24CCC2[C@@]5(C)CC[C@H](O[C@@H]6OC[C@@H](O)[C@H](O)[C@H]6O)[C@@](C)(CO)C5CC[C@@]2(C)[C@]4(C)C[C@H]3O)[C@@H](O)C1 (stereo partly specified) | 122.9*
C[C@@H]1CN([C@@H](C)CO)C(=O)c2cccc(NC(=O)Nc3ccc(F)cc3)c2O[C@@H]1CN(C)S(C)(=O)=O | 3.6
C[C@H](CO)N1C[C@H](C)[C@H](CN(C)Cc2ccncc2)Oc2c(NC(=O)NC3CCCCC3)cccc2C1=O | 0.5
C[C@@H]1CN([C@H](C)CO)C(=O)Cc2cc(N(C)C)ccc2O[C@@H]1CN(C)C(=O)Nc1cccc2ccccc12 | 6.1
COc1cccc(-c2ncc(-c3ccccc3)o2)c1 | 25.7
COc1ccc2c(c1OC)C(=O)N1c3ccccc3N=C(c3ccc(Br)cc3)CC21 (stereo unspecified) | 34.1
C[C@@H]1CN([C@H](C)CO)C(=O)c2cc(NC(=O)C3CCCCC3)ccc2O[C@H]1CN(C)Cc1ccncc1 | 1.9
CC(C)NC(=O)N(C)C[C@H]1Oc2ccc(NC(=O)Cc3cn(C)c4ccccc34)cc2C(=O)N([C@H](C)CO)C[C@H]1C | 16.8
C[C@@H]1CCCCO[C@@H](CN(C)Cc2ccncc2)[C@@H](C)CN([C@H](C)CO)C(=O)c2cc(NC(=O)c3ccccc3)ccc2O1 | -5.3
C[C@@H]1CN([C@@H](C)CO)C(=O)c2cccc(NS(=O)(=O)c3ccccc3)c2O[C@@H]1CN(C)C(=O)NC1CCCCC1 | 25.4
O=C(Cc1ccccc1[N+](=O)[O-])Nc1ccccc1C(=O)N1CCCC1 | 0.9
CC(C)c1ccc(OCC(=O)Nc2ccc(Br)cc2C(=O)O)cc1 | -12.8
O=C(CSc1nnc(-c2ccncc2)o1)c1cccc([N+](=O)[O-])c1 | 28.9
Cc1noc(C)c1NC(=O)Nc1ccc2c(c1)CC(=O)N([C@H](C)CO)C[C@@H](C)[C@H](CN(C)C(=O)Nc1ccc(C(F)(F)F)cc1)O2 | 4.8
Cc1cc(C(=O)Nc2cccc3c2O[C@H](CN(C)C(=O)Nc2cccc4ccccc24)[C@@H](C)CN([C@H](C)CO)C3=O)n(C)n1 | 14.0
Cc1noc(C)c1NC(=O)N(C)C[C@@H]1Oc2c(NC(=O)Nc3ccc(F)cc3)cccc2C(=O)N([C@@H](C)CO)C[C@@H]1C | 10.8
C[C@@H]1CN([C@@H](C)CO)C(=O)c2cccc(NC(=O)c3ccncc3)c2O[C@@H]1CN(C)Cc1ccc(C(F)(F)F)cc1 | 9.7
COc1ccc2c(=S)c(-c3cc4ccccc4o3)c(C)oc2c1 | 6.9
C[C@@H]1CN([C@@H](C)CO)C(=O)c2cccc(NC(=O)C3CC3)c2O[C@@H]1CN(C)Cc1ccc(-c2ccccc2)cc1 | 26.1
C[C@@H]1CN([C@H](C)CO)C(=O)c2cc(N(C)C)ccc2O[C@H]1CN(C)S(=O)(=O)c1ccc(F)cc1 | -17.2
C[C@H]1CN([C@@H](C)CO)C(=O)c2cccc(NS(=O)(=O)c3ccccc3)c2O[C@@H]1CN(C)C | 28.2
COc1ccc(NC(=O)Nc2cccc3c2O[C@@H](CN(C)Cc2ccccc2)[C@@H](C)CN([C@@H](C)CO)C3=O)cc1 | 49.2
CCn1c(SCC(=O)Nc2c(C)cccc2C)nnc1-c1cnccn1 | -3.5
CS(=O)(=O)N(CC(=O)Nc1ccc(C(N)=O)cc1)c1cc(Cl)cc(Cl)c1 | 36.1
Cc1noc(C)c1NC(=O)N(C)C[C@H]1Oc2ccc(NS(=O)(=O)c3cccs3)cc2CC(=O)N([C@@H](C)CO)C[C@@H]1C | -1.7
Next structures.
SMILES | NOMO-1 viab
C[C@@H]1CN([C@@H](C)CO)C(=O)Cc2cc(NS(=O)(=O)c3cccs3)ccc2O[C@@H]1CN(C)S(=O)(=O)c1cn(C)cn1 | -6.3
C[C@@H]1CN([C@@H](C)CO)C(=O)c2cc(NC(=O)C3CC3)ccc2O[C@@H]1CN(C)Cc1ccc(C(F)(F)F)cc1 | 1.8
COc1ccc(NC(=O)CSc2n[nH]c(-c3ccccc3)n2)cc1 | 8.9
Cc1sc(NC(=O)c2cc(-c3cccnc3)nc3ccccc23)c(C(=O)NC2CCCCC2)c1C | 97.9*
C[C@@H]1CN([C@@H](C)CO)C(=O)Cc2cc(NC(=O)NC3CCCCC3)ccc2O[C@@H]1CN(C)C(=O)Nc1ccc(C(F)(F)F)cc1 | 13.7
C[C@H](CO)N1C[C@H](C)[C@@H](CN(C)Cc2ccc(Oc3ccccc3)cc2)Oc2c(NC(=O)c3ccc(-c4nccs4)cc3)cccc2C1=O | 111.6*
CC(Sc1nc(O)c(-c2ccccc2)c(=O)[nH]1)C(=O)Nc1ccc(Cl)cc1 (stereo unspecified) | 1.1
C[C@@H]1CN([C@@H](C)CO)C(=O)c2cc(NC(=O)Nc3cccc4ccccc34)ccc2O[C@H]1CN(C)CC1CCCCC1 | 56.4
Cc1ccc2oc(-c3cccc(NC(=O)COc4ccc5ccccc5c4)c3)nc2c1 | -0.9
Cc1noc(C)c1NC(=O)Nc1ccc2c(c1)CC(=O)N([C@H](C)CO)C[C@H](C)[C@H](CN(C)C(=O)Nc1ccc(F)cc1)O2 | -2.1
CCc1ccc(OCC(=O)Nc2cc(OC)ccc2OC)c(Br)c1 | -7.1
Cc1noc(C)c1NC(=O)Nc1ccc2c(c1)C(=O)N([C@@H](C)CO)C[C@@H](C)[C@@H](CN(C)CC1CCCCC1)O2 | -6.1
O=C(CSc1nnc(CN2CCOCC2)n1-c1ccccc1)N1CCc2ccccc21 | 6.0
COc1ccc(S(=O)(=O)Nc2ccc3c(c2)CC(=O)N([C@@H](C)CO)C[C@H](C)[C@@H](CN(C)CC2CCCCC2)O3)cc1 | 108.8*
Cc1noc(C)c1S(=O)(=O)Nc1cccc2c1O[C@H](CN(C)CC1CC1)[C@H](C)CN([C@H](C)CO)C2=O | 15.7
CCOC(=O)c1c(CN(CC)CC)oc2ccc(OC)cc12 | 8.1
COc1ccc(NC(=O)C(C(=O)Nc2ccc(OC)cc2)C23CC4CC(CC(C4)C2)C3)cc1 | 47.8
Cc1noc(C)c1S(=O)(=O)N(C)C[C@H]1Oc2ccc(NC(=O)C3CC3)cc2CC(=O)N([C@@H](C)CO)C[C@H]1C | 30.7
C[C@@H]1CN([C@H](C)CO)C(=O)Cc2cc(N(C)C)ccc2O[C@@H]1CN(C)S(=O)(=O)c1ccc(F)cc1 | -0.2
CC(=O)Nc1cc2ccccc2oc1=O | 41.4
C[C@@H]1CN([C@H](C)CO)C(=O)c2cccc(NC(=O)NC3CCCCC3)c2O[C@@H]1CN(C)Cc1ccncc1 | -4.0
COc1ccccc1NC(=O)c1c(NC(=O)Cc2ccc([N+](=O)[O-])cc2)sc(C)c1C | 7.0
COC(=O)c1c(NC(=O)Cn2ccc([N+](=O)[O-])n2)sc2c1CCCC2 | 28.0
CC(=O)c1ccccc1OC(=O)CCN1C(=O)C2C3c4ccccc4C(c4ccccc43)C2C1=O (stereo unspecified) | 15.8
Cc1ccc(S(=O)(=O)Nc2ccc3c(c2)C(=O)N([C@@H](C)CO)C[C@@H](C)[C@@H](CN(C)S(=O)(=O)c2c(C)noc2C)O3)cc1 | 13.4
C[C@@H]1CCCCO[C@H](CN(C)C(=O)Nc2cccc3ccccc23)[C@@H](C)CN([C@H](C)CO)C(=O)c2cc(NC(=O)Nc3ccc(F)cc3)ccc2O1 | 40.2
CCc1ccccc1NC(=O)CSc1nc2sc3c(c2c(=O)n1-c1ccccc1)CCC3 | 3.4
C[C@@H]1CN([C@H](C)CO)C(=O)c2cc(NC(=O)CCCN(C)C)ccc2O[C@@H]1CN(C)Cc1ccc2c(c1)OCO2 | -2.7
Cc1ccc(S(=O)(=O)NCCNc2ccc([N+](=O)[O-])cc2)cc1 | 9.5

Nothing new here: entries from further up.
SMILES | NOMO-1 viab
Cc1ccc(S(=O)(=O)Nc2ccc3c(c2)C(=O)N([C@@H](C)CO)C[C@@H](C)[C@@H](CN(C)S(=O)(=O)c2c(C)noc2C)O3)cc1 | 13.4
C[C@@H]1CCCCO[C@H](CN(C)C(=O)Nc2cccc3ccccc23)[C@@H](C)CN([C@H](C)CO)C(=O)c2cc(NC(=O)Nc3ccc(F)cc3)ccc2O1 | 40.2
CCc1ccccc1NC(=O)CSc1nc2sc3c(c2c(=O)n1-c1ccccc1)CCC3 | 3.4
C[C@@H]1CN([C@H](C)CO)C(=O)c2cc(NC(=O)CCCN(C)C)ccc2O[C@@H]1CN(C)Cc1ccc2c(c1)OCO2 | -2.7
Cc1ccc(S(=O)(=O)NCCNc2ccc([N+](=O)[O-])cc2)cc1 | 9.5

This is a subset; count on the stated rates, not on these rows.
